Screens from PubChem BioAssay.
DUX4 txn inh = blocks DUX4-driven transcriptional activation. 293T-iDUX4 ZSCAN4-Gaussia luciferase reporter, 24 h; hits give low values. hit rate 0.8% among 37,000. activity change, negative = inhibition, % (concentration not given with the values). AID 1224904;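 active = -10% or lower and over 25 points stronger than a control reporter; inconclusive = -10% or lower with a smaller gap; inactive = above -10%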;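 also: 0% = median of neutral control wells and -100% = median of positive control wells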
DUX4 txn inh difference = recorded beside DUX4 txn inh, whose call it bears; Gaussia minus Italica difference, %; measured here: selective DUX4 reporter inhibition;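 worked out from the two reporters; negative = selective loss of the DUX4 reporter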
DUX4 txn inh control = recorded beside DUX4 txn inh, whose call it bears; activity change, negative = inhibition, %; measured here: Italica tet-on control reporter;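 0 = neutral control and -100 = positive control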
Starred values were filed as active, the others as inactive; ? = inconclusive; . = not tested or not shown.

The opening 14 entries, to show the layout:
SMILES	DUX4 txn inh	DUX4 txn inh difference	DUX4 txn inh control
C[C@@H]1CCCCO[C@@H](CN(C)Cc2ccc(Cl)c(Cl)c2)[C@@H](C)CN([C@@H](C)CO)C(=O)c2cc(NC(=O)Nc3ccc4c(c3)OCO4)ccc2O1	-7	-11	4.2
N#C[C@@H]1N[C@H](CO)[C@H]1c1ccc(-c2cccc(F)c2)cc1	-6	-2	-4.3
O=C(C[C@H]1CC[C@@H]2[C@H](COC[C@@H](O)CN2C(=O)Nc2ccc3c(c2)OCO3)O1)N1CCN(c2ccccc2)CC1	-2	0	-2.6
CC(=O)N1CC[C@@H]2[C@@H](CO)N(C)c3ccc(-c4ccc(C#N)cc4)cc3[C@@H]21	13	15	-2.3
CS(=O)(=O)Nc1ccc2c(c1)[C@@H]1C[C@H](CC(=O)NCc3ccc(Cl)cc3)O[C@@H](CO)[C@@H]1O2	0	0	-0.6
CCS(=O)(=O)N1CC2(CN(C(=O)Nc3c(C)noc3C)[C@@H](CO)c3[nH]c4cc(OC)ccc4c32)C1	8	0	7.7
COc1ccc(NC(=O)N(C)C[C@H]2Oc3ccc(NC(=O)Nc4cccc5ccccc45)cc3CC(=O)N([C@@H](C)CO)C[C@H]2C)cc1	1	0	1.4
CN(C)C(=O)c1cccc(-c2ccc3c(c2)[C@@H]2[C@@H](CCN2C(=O)c2ccccc2F)[C@@H](CO)N3)c1	?	.	.
C[C@H](CO)N1C[C@H](C)[C@H](CN(C)S(=O)(=O)Cc2ccccc2)OCc2ccccc2-c2c(n(C)c3ccccc23)C1=O	?	.	.
COc1ccc2c3c(n(C)c2c1)[C@@H](CO)N(CC1CCOCC1)CC31CN(C(=O)c2cccc(F)c2)C1	?	.	.
O=C(C[C@@H]1C[C@H]2c3cc(NC(=O)c4cccnc4)ccc3O[C@H]2[C@H](CO)O1)NCc1ccccn1	2	5	-3.1
C[C@@H]1CCCCO[C@H](CN(C)C(=O)NC2CCCCC2)[C@@H](C)CN([C@H](C)CO)C(=O)c2cc(N(C)C)ccc2O1	-1	-6	5.3
C[C@@H]1CN([C@@H](C)CO)C(=O)c2cccc(NC(=O)Nc3ccc4c(c3)OCO4)c2O[C@@H]1CN(C)S(C)(=O)=O	-2	-2	0.5
N#C[C@H]1[C@@H](c2ccccc2/C=C/c2ccccc2)[C@@H](CO)N1S(=O)(=O)c1ccccc1	?	.	.

Results, from the first entry:
SMILES	DUX4 txn inh	DUX4 txn inh difference	DUX4 txn inh control
C[C@@H]1CCCCO[C@@H](CN(C)Cc2ccc(Cl)c(Cl)c2)[C@@H](C)CN([C@@H](C)CO)C(=O)c2cc(NC(=O)Nc3ccc4c(c3)OCO4)ccc2O1	-7	-11	4.2
N#C[C@@H]1N[C@H](CO)[C@H]1c1ccc(-c2cccc(F)c2)cc1	-6	-2	-4.3
O=C(C[C@H]1CC[C@@H]2[C@H](COC[C@@H](O)CN2C(=O)Nc2ccc3c(c2)OCO3)O1)N1CCN(c2ccccc2)CC1	-2	0	-2.6
CC(=O)N1CC[C@@H]2[C@@H](CO)N(C)c3ccc(-c4ccc(C#N)cc4)cc3[C@@H]21	13	15	-2.3
CS(=O)(=O)Nc1ccc2c(c1)[C@@H]1C[C@H](CC(=O)NCc3ccc(Cl)cc3)O[C@@H](CO)[C@@H]1O2	0	0	-0.6
CCS(=O)(=O)N1CC2(CN(C(=O)Nc3c(C)noc3C)[C@@H](CO)c3[nH]c4cc(OC)ccc4c32)C1	8	0	7.7
COc1ccc(NC(=O)N(C)C[C@H]2Oc3ccc(NC(=O)Nc4cccc5ccccc45)cc3CC(=O)N([C@@H](C)CO)C[C@H]2C)cc1	1	0	1.4
CN(C)C(=O)c1cccc(-c2ccc3c(c2)[C@@H]2[C@@H](CCN2C(=O)c2ccccc2F)[C@@H](CO)N3)c1	?	.	.
C[C@H](CO)N1C[C@H](C)[C@H](CN(C)S(=O)(=O)Cc2ccccc2)OCc2ccccc2-c2c(n(C)c3ccccc23)C1=O	?	.	.
COc1ccc2c3c(n(C)c2c1)[C@@H](CO)N(CC1CCOCC1)CC31CN(C(=O)c2cccc(F)c2)C1	?	.	.
O=C(C[C@@H]1C[C@H]2c3cc(NC(=O)c4cccnc4)ccc3O[C@H]2[C@H](CO)O1)NCc1ccccn1	2	5	-3.1
C[C@@H]1CCCCO[C@H](CN(C)C(=O)NC2CCCCC2)[C@@H](C)CN([C@H](C)CO)C(=O)c2cc(N(C)C)ccc2O1	-1	-6	5.3
C[C@@H]1CN([C@@H](C)CO)C(=O)c2cccc(NC(=O)Nc3ccc4c(c3)OCO4)c2O[C@@H]1CN(C)S(C)(=O)=O	-2	-2	0.5
N#C[C@H]1[C@@H](c2ccccc2/C=C/c2ccccc2)[C@@H](CO)N1S(=O)(=O)c1ccccc1	?	.	.
C[C@@H]1CCCCO[C@@H](CN(C)C(=O)NC2CCCCC2)[C@H](C)CN([C@H](C)CO)C(=O)c2cc(NC(=O)Nc3cccc4ccccc34)ccc2O1	-2	-6	3.8
O=C(Nc1ccc(C(F)(F)F)cc1)Nc1ccc2c(c1)[C@@H]1C[C@H](CC(=O)N3CCc4ccccc4C3)O[C@H](CO)[C@@H]1O2	?	.	.
C[C@H](CO)N1C[C@H](C)[C@@H](CN(C)Cc2ccncc2)OCCCC[C@H](C)Oc2ccc(NS(=O)(=O)c3ccc(Cl)cc3)cc2C1=O	2	-7	8.8
C[C@H]1CN([C@@H](C)CO)C(=O)c2cc(NC(=O)CCN3CCOCC3)ccc2O[C@@H]1CN(C)Cc1ccc(C(F)(F)F)cc1	-3	-3	-0.5
O=C(C[C@H]1CC[C@@H]2[C@H](COC[C@H](O)CN2S(=O)(=O)c2ccccc2)O1)N1CCOCC1	8	0	8.1
C[C@@H]1CN([C@@H](C)CO)C(=O)c2cc(C#CC3CCCCC3)cnc2O[C@H]1CN(C)S(=O)(=O)c1ccccc1	3	-1	3.7
O=C(C[C@H]1CC[C@H]2[C@@H](COC[C@@H](O)CN2Cc2ccccc2F)O1)N[C@H]1CCN(Cc2ccccc2)C1	-8	-8	-0.2
O=C(NCc1ccccc1)[C@H]1[C@H](CO)[C@H]2Cn3c(ccc(/C=C/c4ccccc4)c3=O)[C@@H]1N2CC1CC1	?	.	.
COc1cccc(-c2ccc3c(c2)[C@H]2[C@H](CCN2C(=O)Cc2ccncc2)[C@H](CO)N3)c1	?	.	.
O=C(C[C@@H]1CC[C@@H]2[C@H](COC[C@H](O)CN2C(=O)Nc2cccc(Cl)c2)O1)NCC1CCCCC1	8	6	2.6
C[C@H](CO)N1C[C@H](C)[C@H](CN(C)S(=O)(=O)CC(F)(F)F)OCc2ccccc2-c2ccccc2C1=O	-1	-3	1.8
Cc1ccccc1S(=O)(=O)N1C[C@H](O)COC[C@H]2O[C@H](CC(=O)N3CCC(Cc4ccccc4)CC3)CC[C@@H]21	-9	-4	-4.5
Cc1cccc(S(=O)(=O)N2C[C@@H]3[C@H](c4ccccc42)[C@H](CO)N3CC2CCOCC2)c1	-4	1	-5.0
CC(C)NC(=O)N1CCCCN2[C@@H](CO)[C@H](c3ccc(C#C[C@@H](C)O)cc3)[C@@H]2C1	24	8	15
COCC(=O)N1[C@H](C#N)[C@H](c2ccccc2-c2ccccc2F)[C@H]1CO	3	1	2.2
CO[C@H]1CC[C@H]2CCN(C)C(=O)C[C@H](c3ccccc3)CN(C)C(=O)c3cccc(C#N)c3OC[C@H]1O2	3	3	-0.3
CC(=O)Nc1ccc2c(c1)C(=O)N(C)[C@H]1CC[C@H](CC(=O)NCCCN3CCOCC3)O[C@H]1CO2	-1	0	-1.4
C[C@@H]1CN([C@H](C)CO)C(=O)c2cc(NS(=O)(=O)c3ccc(Cl)cc3)ccc2O[C@H]1CN(C)CC1CCCCC1	1	0	0.6
O=C(C[C@H]1CC[C@H]2[C@@H](COC[C@@H](O)CN2S(=O)(=O)c2cccc(Cl)c2)O1)N1CCOCC1	6	9	-2.8
CCC(=O)N1[C@H](CO)[C@@H](c2ccccc2)C12CN(C(=O)Nc1ccccc1F)C2	-1	-5	4.7
Cc1cccc(S(=O)(=O)N(C)C[C@@H]2OCc3ccccc3-c3ccccc3C(=O)N([C@H](C)CO)C[C@H]2C)c1	-1	-4	2.1
CN(C)C(=O)c1ccc(-c2ccc(C3[C@H]4CNC[C@@H]3N4C(=O)Nc3cc(F)ccc3F)cc2)cc1 (stereo partly drawn)	7	11	-3.7
O=C(Cc1ccccc1)N1CC[C@@H]2[C@H](CO)Nc3ccc(C4=CCCCC4)cc3[C@@H]21	?	.	.
O=C(C[C@@H]1C[C@@H]2c3cc(NS(=O)(=O)c4ccc(F)cc4)ccc3O[C@@H]2[C@H](CO)O1)NCc1cccc(F)c1	1	2	-1.3
COc1cccc(NC(=O)Nc2ccc3c(c2)C(=O)N(C)C[C@H](OC)[C@@H](C)CN(CC2CC2)[C@@H](C)CO3)c1	?	.	.
CC(C)NC(=O)N1CC2(C1)[C@@H](c1ccccc1)[C@@H](CO)N2C(=O)C1CCOCC1	-4	-5	1.6
COc1ccc2c3c(n(C)c2c1)[C@@H](CO)N(C(C)=O)CC31CCN(Cc2ccc(Cl)cc2)CC1	?	.	.
CC(C)C(=O)Nc1ccc2c(c1)C(=O)N(C)[C@@H]1CC[C@@H](CC(=O)NCc3ccc(F)cc3)O[C@H]1CO2	2	6	-3.1
CCCNC(=O)Nc1ccc2c(c1)C(=O)N(C)C[C@@H](OC)[C@H](C)CN(C(=O)C1CCCCC1)[C@@H](C)CO2	0	-1	1.2
N#C[C@@H]1[C@@H](c2ccc(-c3ccccc3F)cc2)[C@H](CO)N1C(=O)Cc1ccccc1	1	1	-0.1
COc1ccccc1S(=O)(=O)N1CC[C@H]2[C@H](CO)Nc3ccc(-c4ccc(C#N)cc4)cc3[C@H]21	4	3	1.8
O=C([C@H]1[C@H](CO)[C@H]2Cn3c(ccc(C4=CCCC4)c3=O)[C@@H]1N2C(=O)c1ccncc1)N1CCOCC1	2	-12	14
C[C@@H]1CN([C@@H](C)CO)C(=O)c2c(c3ccccc3n2C)-c2ccccc2CO[C@@H]1CN(C)S(=O)(=O)c1ccsc1	7	8	-1.1
O=C([C@H]1[C@H](CO)[C@H]2Cn3c(cccc3=O)[C@H]2N1CC1CCCC1)N1CCOCC1	-1	-3	1.7
COc1cccc(-c2ccc(C3[C@H]4CNC[C@@H]3N4CC3CCCCC3)cc2)c1 (stereo partly drawn)	6	-2	8.3
CN1C(=O)c2cc(NC(=O)c3ccc(C(F)(F)F)cc3)ccc2OC[C@H]2O[C@H](CC(=O)NC3Cc4ccccc4C3)CC[C@H]21	?	.	.
Going on with the list.
SMILES	DUX4 txn inh	DUX4 txn inh difference	DUX4 txn inh control
CS(=O)(=O)Nc1ccc2c(c1)[C@H]1C[C@H](CC(=O)NCCc3ccccc3)O[C@H](CO)[C@H]1O2	5	2	2.2
CO[C@H]1CC[C@H]2CCOc3ccc(C#N)cc3C(=O)N(C)C[C@@H](C)C(=O)N(C)C[C@@H]1O2	0	-3	2.9
CS(=O)(=O)N1[C@@H](C#N)[C@H](c2ccc(C#CC3CCCC3)cc2)[C@@H]1CO	-2	1	-3.2
COc1ccc2c3c([nH]c2c1)[C@H](CO)N(S(C)(=O)=O)CC31CN(CC2CCOCC2)C1	15	5	9.6
CC(C)NC(=O)N1CC2(C1)[C@H](c1ccccc1)[C@H](CO)N2C(=O)C1CCOCC1	17	7	9.3
O=C(c1cccnc1)N1CC2(C1)[C@@H](c1ccccc1)[C@H](CO)N2C(=O)c1cccnc1	15	6	8.9
COc1ccc(-c2ccc3n(c2=O)C[C@@H]2N[C@H]3[C@H](C(=O)N3CCCCC3)[C@H]2CO)cc1	-1	0	-0.8
COCC(=O)N1[C@H](C#N)[C@@H](c2ccccc2C2=CCCCC2)[C@H]1CO	10	4	5.4
COC(=O)C[C@H]1CC[C@H]2[C@@H](COc3ccc(NC(=O)Nc4ccc(Cl)cc4)cc3C(=O)N2C)O1	1	0	1.7
COc1ccc(S(=O)(=O)N(C)C[C@@H]2Oc3ncccc3C(=O)N([C@H](C)CO)C[C@@H]2C)cc1	-4	-4	0.6
CO[C@H]1CC[C@@H]2CCN(C)C(=O)[C@@H](C)[C@H](OC)CN(C)C(=O)c3cccc(C#N)c3OC[C@H]1O2	0	2	-1.5
CCC(=O)Nc1ccc2c(c1)C(=O)N(C)[C@H]1CC[C@@H](CC(=O)N[C@@H](C)c3ccccc3)O[C@@H]1CO2	2	-1	2.4
C[C@@H]1CN([C@H](C)CO)C(=O)Cc2cc(NC(=O)Nc3ccccc3)ccc2O[C@@H]1CN(C)CC1CCCCC1	2	-1	2.6
Cc1ccccc1S(=O)(=O)N1CC(=O)N2[C@H](C1)[C@@H](c1ccc(C#CCC(C)C)cc1)[C@@H]2CO	-7	1	-7.8
CO[C@H]1CN(C)C(=O)c2cc(NC(C)=O)ccc2OC[C@H](C)N(Cc2ccncc2)C[C@H]1C	0	-4	3.3
CCCNC(=O)N1CCC2(CC1)CN(C(=O)COC)[C@H](CO)c1[nH]c3cc(OC)ccc3c12	5	0	4.9
CN1c2ccc(-c3ccccc3F)cc2[C@H]2[C@H](CCN2C(=O)c2ccccn2)[C@@H]1CO	12	8	3.9
COc1ccccc1CNC(=O)C[C@@H]1CC[C@@H]2[C@H](COc3ccc(NC(=O)Nc4ccc(F)c(F)c4)cc3C(=O)N2C)O1	1	-4	4.6
C[C@@H]1CN([C@H](C)CO)C(=O)CCCn2cc(nn2)CO[C@@H]1CN(C)S(=O)(=O)c1cccs1	3	1	2.2
O=C(C1CCOCC1)N1CC2(C1)[C@H](c1ccccc1)[C@@H](CO)N2Cc1ccc(Cl)cc1	-3	-2	-1.3
C[C@H](CO)N1C[C@H](C)[C@H](CN(C)S(=O)(=O)c2ccc(Oc3ccccc3)nc2)OCc2cnnn2CCCC1=O	-2	7	-9.0
COCC#Cc1ccc2c(c1)O[C@H](CN(C)Cc1ccccc1F)[C@H](C)CN([C@H](C)CO)S2(=O)=O	0	-10	10
O=C(c1ccccc1)N1C[C@H]2[C@@H](c3ccccc31)[C@@H](CO)N2Cc1ccccc1F	-2	2	-4.1

These rows are one share of the data; count on the stated rates, not on these rows.
